# Cruzain Triton – cruzain (T. cruzi) inhibition with detergent; P25779; purified cruzain, Z-FR-AMC fluorescence, 0.01% Triton; Potency, µM, without a hit: max response, negative = inhibition, hits mostly inhibitors; 200,000 compounds, 0.43% hits; AID 1478;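 also: plate controls were neutral wells for no effect and buffer without enzyme for full effect; nearly all actives have a fitted effect of over 40% in size; top concentration of the series not given in the record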
# Target sequence (P25779 123-467 limits assumed): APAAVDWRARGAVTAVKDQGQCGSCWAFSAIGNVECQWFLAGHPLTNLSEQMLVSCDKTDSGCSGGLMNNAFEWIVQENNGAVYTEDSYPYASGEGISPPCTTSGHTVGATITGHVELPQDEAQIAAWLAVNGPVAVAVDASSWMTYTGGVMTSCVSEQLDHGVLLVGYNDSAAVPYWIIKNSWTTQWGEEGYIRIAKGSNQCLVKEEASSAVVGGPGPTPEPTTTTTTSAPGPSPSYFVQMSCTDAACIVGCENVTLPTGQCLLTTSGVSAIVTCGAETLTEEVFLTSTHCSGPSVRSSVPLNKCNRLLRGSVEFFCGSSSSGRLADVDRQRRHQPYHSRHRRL
#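 In this qHTS format, compounds are incubated with 1.5 nM cruzain for 15 min at room temperature before 2 uM Z-FR-AMC is added. Release of AMC is followed at 360/450 nm, and progress is taken as the 60 s fluorescence difference.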
# Lassa entry inh – Lassa virus entry inhibition | Lassa virus pseudotype entry inhibition, cell reporter; control for the full effect not named in the record | Potency, µM (highest dose often 37.9 µM), for inactives: top-dose activity change, negative = inhibition, usual class: inhibitors | 300,000 compounds, 1.2% hits | AID 540256; active means well fitted inhibition curve with a large enough effect; inconclusive means small, poorly fitted or top-dose-only effect, or effect the other way; inactive means flat fitted curve, though single readings scatter; tested in HEK293 cells; also: % is scaled to controls: 0 for no effect and ±100 for the full control effect; nearly all actives have a fitted effect of over 50% in size; luciferase read-out
# 2A StopGo – FMDV 2A StopGo reporter, luciferase signal. 410,000 compounds, 1.2% hits. human cells with a luciferase reporter of 2A StopGo recoding; control for the full effect not named in the record. Potency, µM (top dose mostly 57.9 µM), inactives show top-dose signal change, negative = less light; active = well fitted falling curve with a large enough effect; inconclusive = small, poorly fitted or top-dose-only effect; inactive = no such curve, though single readings can be large or run the other way; tested in HEK293T cells; also: % is scaled to controls: 0 for no effect and ±100 for the full control effect; nearly all actives have a fitted effect of over 45% in size; luciferase light after 4 h
# SARS PLP yeast – SARS-CoV PLP inhibition in yeast; 330,000 compounds, 0.19% hits; Potency, µM (top dose mostly 32.9 µM), for inactives: top-dose activity, positive = growth rescue; S. cerevisiae expressing SARS-CoV PLpro, growth rescue; control for the full effect not named in the record; AID 485353; active means well fitted rising curve with a large enough effect; inconclusive means small, poorly fitted or top-dose-only effect; inactive means no such curve, though single readings can be large or run the other way; also: 0% is about no effect; nearly all actives have a fitted effect of over 55% in size; growth read by luminescence after 48 h
# Cruzain noTriton – cruzain (T. cruzi) inhibition without detergent. 200,000 compounds, 2.3% hits. P25779. purified cruzain, Z-FR-AMC fluorescence, no detergent. Potency, µM, for the others: max response, negative = inhibition, usual class: inhibitors. AID 1476;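 also: plate controls were enzyme without inhibitor for no effect and buffer without enzyme for full effect; nearly all actives have a fitted effect of over 40% in size; top concentration of the series not given in the record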
#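 Purified cruzain at 1.5 nM, pre-incubated 15 min with compound at room temperature in 100 mM sodium acetate pH 5.5, 5 mM DTT, 0.00005% Triton X-100. Reaction started with 2 uM Z-FR-AMC; AMC fluorescence increase over 60 s gives rate.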
# MARV entry inh – inhibitors of Marburg virus binding or cell entry; 300,000 compounds, 1.8% hits; Potency, µM (top dose mostly 37.8 µM), for the others: at the top dose activity change, negative = inhibition, actives largely listed as inhibitors; AID 540276; Marburg virus pseudotyped entry inhibition, cell reporter; control for the full effect not named in the record; about a third of the inactives were read at about 46 µM; active = well fitted inhibition curve with a large enough effect; inconclusive = small, poorly fitted or top-dose-only effect, or effect the other way; inactive = flat fitted curve, though single readings scatter; tested in HEK293 cells; about a fifth of its hits are not listed in these tables; also: % is scaled to controls: 0 for no effect and ±100 for the full control effect; luciferase read-out
# NS1 function inh – blocks influenza NS1 protein function. Potency, µM (series often up to 46.1 µM), for inactives: top-dose activity, positive = more growth. 270,000 compounds, 0.4% hits. S. cerevisiae slowed by influenza A NS1, growth recovery by OD600. AID 2326; active means well fitted rising curve with a large enough effect; inconclusive means small, poorly fitted or top-dose-only effect; inactive means no such curve, though single readings can be large or run the other way; also: nearly all actives have a fitted effect of over 50% in size
#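 Growth recovery, yeast-based: influenza A NS1 expressed in S. cerevisiae causes slow growth, and suppressors are detected by OD600. The parent strain without NS1 is used as positive control.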
# RE007 growth inh – less growth of the S. pombe RE007 Vpr strain. Potency, µM (series often up to 92.2 µM), without a hit: at the highest dose activity change, negative = less growth. 360,000 compounds, 0.21% hits. S. pombe RE007 Vpr strain, BacTiter-Glo ATP luminescence, 24 h; control for the full effect not named in the record; active = well fitted falling curve with a large enough effect; inconclusive = small, poorly fitted or top-dose-only effect; inactive = no such curve, though single readings can be large or run the other way;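 also: % is scaled to controls: 0 for no effect and ±100 for the full control effect; nearly all actives have a fitted effect of over 50% in size; the assay follows cell death caused by Vpr and the record does not say whether a fall means rescue or toxicity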
#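 Fission yeast RE007 carrying one integrated HIV-1 vpr copy, seeded at OD 0.01 in PMG+AL medium with 23 nL pinned compound. Grown 24 h at 30 degrees; viability read by BacTiter-Glo luminescence after 5 min.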
# The depositor's hits bear a star; ? = inconclusive; / = no result given; & = joins results of further samples; [ ] = another dose, or the depositor's remark. Unless noted, calls follow the shape of the dose curve; as a rule, active = well fitted curve in the direction sought with a large enough effect; inconclusive = small, poorly fitted or top-dose-only effect, or another doubt; inactive = no such curve, though single readings can be large; an effect the other way counts as inactive or inconclusive. Potency is read from the fitted curve at half-maximal effect.
SMILES,Cruzain Triton,Lassa entry inh,2A StopGo,SARS PLP yeast,Cruzain noTriton,MARV entry inh,NS1 function inh,RE007 growth inh
O=C(NCC1CCCO1)c1sc2cc(Cl)ccc2c1Cl (configuration not stated),-12%,22%,48%[activator],-16%,0%,19%,-14%,-1%
COc1ccc(Cc2nnc(SCC(=O)Nc3ccccc3)[nH]c2=O)cc1,/,3%,-2%,3%,/,-17%[46.1 µM],/,24%
CC1=C(C(=O)Nc2ccccc2)C(c2ccncc2)n2nc(SCc3ccccc3Cl)nc2N1 (configuration not stated),0.5%,-2%[46.1 µM],-12%,/,12%,27%[46.1 µM],/,/
CC(=O)n1cc(N(C(=O)CCl)c2ccc([N+](=O)[O-])cc2)c2ccccc21,/,?,10µM*,-2%,/,?,-6%,-16%
Cc1cccc(C)c1NC(=O)CN(C)C(=O)CSC(=S)N1CCCC1,/,4%,-5%,1%,/,-8%,/,33%
COc1ccc(CCn2nnnc2C(c2ccccc2)N2CCN(C)CC2)cc1OC (configuration not stated),3.4%,2%,-17%,-5%,-7%,6%&7%,-10%,-6%
CCCCOc1ccc(C2(C(=O)O)CCCC2)cc1,2.5%,10%,0%,10%,-6%,0%,-104%,-6%
c1ccc(SCc2nc(-c3ccncc3)no2)cc1,-0.3%,9%,/,-14%,-8%,22%,-6%[9.22 µM],2%
C/C(=N\O)C(C)(C)Nc1ccccc1F,/,24%,-7%,-1%,/,-3%,0%,18%
O=C(c1ccc(F)cc1F)C1CCN(c2ccc([N+](=O)[O-])cn2)CC1,/,-11%[46.1 µM],?,-3%,/,?,-2%,4%

# Nine entries from above, arranged by SMILES length, low to high.
SMILES,Cruzain Triton,Lassa entry inh,2A StopGo,SARS PLP yeast,Cruzain noTriton,MARV entry inh,NS1 function inh,RE007 growth inh
C/C(=N\O)C(C)(C)Nc1ccccc1F,/,24%,-7%,-1%,/,-3%,0%,18%
c1ccc(SCc2nc(-c3ccncc3)no2)cc1,-0.3%,9%,/,-14%,-8%,22%,-6%[9.22 µM],2%
O=C(NCC1CCCO1)c1sc2cc(Cl)ccc2c1Cl (configuration not stated),-12%,22%,48%[activator],-16%,0%,19%,-14%,-1%
Cc1cccc(C)c1NC(=O)CN(C)C(=O)CSC(=S)N1CCCC1,/,4%,-5%,1%,/,-8%,/,33%
COc1ccc(Cc2nnc(SCC(=O)Nc3ccccc3)[nH]c2=O)cc1,/,3%,-2%,3%,/,-17%[46.1 µM],/,24%
COc1ccc(CCn2nnnc2C(c2ccccc2)N2CCN(C)CC2)cc1OC (configuration not stated),3.4%,2%,-17%,-5%,-7%,6%&7%,-10%,-6%
O=C(c1ccc(F)cc1F)C1CCN(c2ccc([N+](=O)[O-])cn2)CC1,/,-11%[46.1 µM],?,-3%,/,?,-2%,4%
CC(=O)n1cc(N(C(=O)CCl)c2ccc([N+](=O)[O-])cc2)c2ccccc21,/,?,10µM*,-2%,/,?,-6%,-16%
CC1=C(C(=O)Nc2ccccc2)C(c2ccncc2)n2nc(SCc3ccccc3Cl)nc2N1 (configuration not stated),0.5%,-2%[46.1 µM],-12%,/,12%,27%[46.1 µM],/,/

# The list goes on.
SMILES,Cruzain Triton,Lassa entry inh,2A StopGo,SARS PLP yeast,Cruzain noTriton,MARV entry inh,NS1 function inh,RE007 growth inh
COCCOC(=O)c1[nH]c2c(c1C)C(=O)C(C(=O)OC)C(C)C2 (configuration not stated),1.9%,/,63%[activator],-9%,5%,/,?,-2%
CCc1nc(N2CCCCC2)c2oc3ccccc3c2n1,-8.9%,-18%,-10%,/,-15%,-11%,-143%,18%
COc1ccc(CCNC(=O)Cc2ccccc2)cc1OC,/,-1%[46.1 µM],6%,-3%,/,0%[46.1 µM],0%,-2%
Clc1ccc(OCc2nc(-c3ccccn3)n[nH]2)cc1,-2.5%,0%,28%,-7%,8%,?,-78%,?
CCO[C@H]1OC(C(=O)NCc2ccccc2)=C[C@@H](c2cn(C(C)=O)c3ccccc23)[C@@H]1CCCO,/,/,-17%,1%,/,/,-4%,-1%
O=C1CN(C(=O)c2cc([N+](=O)[O-])ccc2Cl)C(c2ccc(F)cc2)c2cc(F)ccc2N1 (configuration not stated),-0.8%,-6%,-28%,1%,-4%,?,4%,20%
CC(C)CCNC(=O)C1CCCN(S(=O)(=O)c2ccc(-n3cnnn3)cc2)C1 (configuration not stated),/,?,-4%,2%,/,-24%[46.1 µM],4%,4%
S=C(Nc1ccc2nc(-c3ccccn3)c(-c3ccccn3)nc2c1)N1CCOCC1,/,15%,-8%,-1%,/,?,0%,-6%
O=C(O)CCC(=O)N1CCc2cc(S(=O)(=O)N(CCc3ccccc3)Cc3ccccc3)ccc21,?,-17%,/,5%,?,1%,22%,1%
c1csc(-c2nc3ccccn3c2Nc2ccc3c(c2)OCCO3)c1,-17%,22%[46.1 µM],42%[activator],/,-3%,-27%[46.1 µM],/,/

# A section from the list above:
SMILES,Cruzain Triton,Lassa entry inh,2A StopGo,SARS PLP yeast,Cruzain noTriton,MARV entry inh,NS1 function inh,RE007 growth inh
O=C(O)CCC(=O)N1CCc2cc(S(=O)(=O)N(CCc3ccccc3)Cc3ccccc3)ccc21,?,-17%,/,5%,?,1%,22%,1%
c1csc(-c2nc3ccccn3c2Nc2ccc3c(c2)OCCO3)c1,-17%,22%[46.1 µM],42%[activator],/,-3%,-27%[46.1 µM],/,/

# Additional structures
SMILES,Cruzain Triton,Lassa entry inh,2A StopGo,SARS PLP yeast,Cruzain noTriton,MARV entry inh,NS1 function inh,RE007 growth inh
O=[N+]([O-])c1ccc(Nc2ccc(F)cc2)cc1,/,/,0%,0%,/,/,-2%,-12%
COc1cccc(OC)c1C(=O)NN1CCCCC1,2.1%,?,-8%,-4%,-8%,7%,24%,-4%
COc1ccccc1NC(=O)N1CCC(C(=O)c2ccc(F)cc2)CC1,1.6%,7%,4%,2%,-6%,14%,4%,3%
CCOc1ccc(C(C)NC(=S)NC2CCCCC2)cc1 (configuration not stated),/,/,-9%,-1%,/,/,-6%,11%
COc1ccc(OC(C)C(=O)N(C)Cc2nc(-c3ccc(C)cc3)no2)cc1 (configuration not stated),/,/,?,-14%,/,-1%[46.1 µM],-8%,-4%
Cc1ccc(C)n1-c1sc2c(c1C(=O)O)CCCC2,-5.2%,4%,-5%,4%,5%,?,14%,-5%
NC(=O)N/N=C1\CCS(=O)(=O)c2ccc(F)cc21,/,?,-8%,2%,/,17%,-3%,3%
Cc1ccc(/C=C/C(=O)NCCCN2CCN(CCCNC(=O)/C=C/c3ccc(C)cc3)CC2)cc1,-3.8%,9%,-26%,5%,4%,?,-2%,5%
COc1ccc(Nc2nc(N)nc(COc3ccc(OC)cc3)n2)cc1,3.3%,-9%,18%,0%,?,-14%,8%,17%
CCn1cc(C(=O)N2CCN(c3ccccc3OC)CC2)c2cc(OC)c(OC)cc2c1=O,-1.1%,-16%[46.1 µM],-7%&0%,-2%,3%,3%&3%[46.1 µM],/,13%
O=c1c2ccccc2nc(-c2ccccc2)n1-c1cccc(O)c1,/,-16%[46.1 µM],-14%,-1%,/,?,-1%,4%
C[n+]1cccc(CNC(=O)/C=N/O)c1,9.6%,0%,-4%,-4%,-13%,-7%,10%,8%
CN(C)c1cc(C(F)(F)F)nc(-c2ccccn2)n1,3.7%,?,18%,-7%,-4%,0%,5%,2%
COc1ccc(CN(C)C(=O)C23CC4CC(CC(C4)C2)C3)c(OC)c1,/,-20%[46.1 µM],-7%,-7%,/,-26%[46.1 µM],-49%,8%
CNS(=O)(=O)c1ccc2nc(NC(=O)c3ccc(N4C(=O)CCC4=O)cc3)sc2c1,/,-9%,-1%,-1%,/,-5%,5%,-2%
COc1cc2c(cc1OC)C(C(=O)Nc1ccccc1N1CCN(C)CC1)C1c3ccccc3CCN1C2=O (configuration not stated),/,1%,-16%,-2%,/,?,/,-4%
CC1(c2ccccc2)NC(=O)N(NC(=O)CSc2n[nH]c(N)n2)C1=O (configuration not stated),/,/,0%,-3%,/,/,-36%,3%
Cc1ccc(/C=N/NC(=O)c2cccc3ccccc23)o1,/,?,6%,-17%,/,-24%[46.1 µM],-1%,1%
Cc1cc(Br)ccc1SCC(=O)OCC(=O)c1c(N)n(C)c(=O)n(C)c1=O,/,/,11%,-3%,/,/,2%,-9%
Cc1cc(C(=O)N2CCN(Cc3ccc4c(c3)OCO4)CC2)cs1,7.7%,?,-29%,7%,20%,-17%,-2%,0%
COc1cc2c(cc1OC)C1=NC(=O)CN1C(SCc1ccccc1)=N2,-21%,-17%,-24%,3%,?,?,13%,-4%
CC(=O)Nc1ccc2nc(NC(=O)COc3cccc(C)c3)sc2c1,/,11%,-8%,0%,/,4%,/,7%
COc1ccc(C2(C(=O)Nc3c(C)n(C)n(-c4ccccc4)c3=O)CCCC2)cc1OC,-0.6%,-15%,-5%,-3%,-10%,10%[46.1 µM],3%,-10%
COc1ccc(-c2csc(NC(C)=O)n2)cc1OC,2.2%,-8%,29%,-4%,-16%,?,-6%,18%
Cc1cccc(C(=O)N/C(=C\c2ccco2)C(=O)N2CCCCCC2)c1,/,-17%[46.1 µM],0%,-1%,/,-26%[46.1 µM],12%,-20%
Cc1nnc(SCC(=O)Nc2ccc3c4c(cccc24)CC3)n1C,3.0%,-3%,14%,7%,-11%,15%,1%,1%
COc1ccc(/C=N/NC(=O)CCCCCNC(=O)c2ccccc2)cc1,-0.7%,0%,19%,-23%,-1%,26%,-7%,3%
Cc1ccc(C)c(N2CCN(S(=O)(=O)c3cc(Br)cc4c3N(C(=O)C3CC3)CC4)CC2)c1,3.0%,8%[46.1 µM],-2%,/,-3%,10%[46.1 µM],/,/
CCOC(=O)c1csc(N/N=C2\CCc3ccccc32)n1,/,18%[46.1 µM],-3%,-1%,/,10%[46.1 µM],0%,8%

# Screening results as filed in PubChem.
